Screening data (PubChem)
GSTO1 counter – inhibitors of recombinant GSTO1, primary screen, counter-screen for RBBP9 inhibitor project, biochemical, fluorescence polarization | activity-based probe fluorescence polarization | AID 1974, 2009 | inhibition, % at 5.96 µM | hit rate 1.1% among 300,000 | Glutathione S-transferase omega-1 (Homo sapiens), P78417;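 active = inhibition above the campaign mean inhibition plus 3 SD, cut at about 35% in these data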;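 also: 0% = GSTO1-1 with DMSO and 100% = wells lacking GSTO1-1 enzyme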
pPAFAH FP inh – pPAFAH enzyme inhibitors, primary screen, biochemical, fluorescence polarization, human | Platelet-activating factor acetylhydrolase (Homo sapiens), Q13093 | inhibition, % at 3.39 µM | recombinant pPAFAH, FP-rhodamine probe fluorescence polarization | hit rate 1.5% among 330,000;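 active = inhibition above the mean inhibition across the screen plus 3 SD, cut at about 25% in these data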;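 also: inhibitors block binding of the rhodamine activity-based probe so polarization drops; 0% = enzyme with DMSO and 100% = wells lacking pPAFAH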
PME-1 inh – PME-1 inhibitors via competitive probe labeling, primary screen, biochemical, fluorescence polarization, FP-Rh probe, HTS; recombinant PME-1; inhibition, % at 5.9 µM; Protein phosphatase methylesterase 1 (Homo sapiens), Q9Y570; hit rate 0.53% among 320,000;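 active = inhibition above the campaign mean of all compounds plus 3 SD, cut at about 26% in these data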;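 also: competitive labeling of PME-1 active site by serine hydrolase directed probe; 0% = PME-1 with DMSO and 100% = wells lacking PME-1 enzyme; inhibitors block probe labeling so polarization falls and inhibition rises; many of its hits are not listed in these tables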
Target sequence (Q9Y570 whole entry, looked up): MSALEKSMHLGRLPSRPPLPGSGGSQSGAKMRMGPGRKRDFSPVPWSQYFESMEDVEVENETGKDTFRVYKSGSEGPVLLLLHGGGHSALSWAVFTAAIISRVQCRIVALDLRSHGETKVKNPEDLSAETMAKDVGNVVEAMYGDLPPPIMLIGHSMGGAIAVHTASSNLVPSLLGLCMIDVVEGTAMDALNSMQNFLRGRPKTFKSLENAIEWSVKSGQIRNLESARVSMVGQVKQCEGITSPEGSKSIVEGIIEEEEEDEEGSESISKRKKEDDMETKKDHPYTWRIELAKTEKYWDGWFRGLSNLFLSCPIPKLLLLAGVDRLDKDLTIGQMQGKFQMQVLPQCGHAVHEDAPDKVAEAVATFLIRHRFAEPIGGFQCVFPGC
PAFAH2 FP inh – PAFAH2 enzyme inhibitors, primary screen, biochemical, fluorescence polarization, human | Platelet-activating factor acetylhydrolase 2, cytoplasmic (Homo sapiens), Q99487 | recombinant PAFAH2, FP-rhodamine activity probe | hit rate 0.99% among 340,000 | inhibition, % at 3.39 µM;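 active = inhibition above the mean over all tested compounds plus 3 SD, cut at about 30% in these data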;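 also: inhibitors block probe labeling of enzyme so polarization drops; 0% = enzyme with DMSO and 100% = wells lacking PAFAH2 protein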
PAFAH1B3 inh – PAFAH1B3 enzyme inhibitors, primary screen, biochemical, fluorescence polarization, human; Platelet-activating factor acetylhydrolase IB subunit alpha1 (Homo sapiens), Q15102; recombinant PAFAH1B3, FP-rhodamine probe; inhibition, % at 3.39 µM; hit rate 0.28% among 340,000; AID 492972, 2010;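 active = inhibition above the screen-wide average of all tested compounds plus 3 SD, cut at about 25% in these data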;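 also: 0% = enzyme with DMSO only and 100% = wells lacking PAFAH1B3 protein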
Target sequence (Q15102 whole entry, looked up): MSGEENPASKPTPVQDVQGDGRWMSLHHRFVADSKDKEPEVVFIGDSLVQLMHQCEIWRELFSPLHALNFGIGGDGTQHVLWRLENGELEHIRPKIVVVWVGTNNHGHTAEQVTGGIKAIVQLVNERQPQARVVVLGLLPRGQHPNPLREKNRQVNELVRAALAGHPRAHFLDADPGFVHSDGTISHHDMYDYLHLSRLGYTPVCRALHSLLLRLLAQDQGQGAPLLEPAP
PAD4 inh – human PAD4 inhibitors, primary screen, biochemical, fluorescence polarization, 1536-well format | Protein-arginine deiminase type-4 (Homo sapiens), Q9UM07 | AID 485272, 2010 | inhibition, % at 6.36 µM | recombinant PAD4, RCA probe fluorescence polarization | hit rate 0.41% among 330,000;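 active = percent inhibition above a cutoff equal to the mean of all tested compounds plus 3 SD, cut at about 15% in these data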;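 also: 0% = PAD4 with RCA probe and DMSO and 100% = probe without PAD4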
LYPLA1 counter – LYPLA1 inhibitors, primary screen, counter-screen for PME1 inhibitor project, biochemical, fluorescence polarization, FP-Rh probe ABPP. Acyl-protein thioesterase 1 (Homo sapiens), O75608. recombinant LYPLA1. inhibition, % at 5.9 µM. hit rate 0.16% among 320,000. AID 2174, 2009;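 active = inhibition above the mean of all tested compounds plus 3 SD, set per campaign, cut at about 14% in these data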;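 also: inhibitors block serine hydrolase probe labeling of LYPLA1 so polarization falls; 0% = enzyme with DMSO and 100% = wells lacking LYPLA1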
Fam108B counter – mouse Fam108B serine hydrolase inhibitors, primary screen, counter-screen for RBBP9 inhibitor project, biochemical, fluorescence polarization; recombinant Fam108B, FP-Rh probe fluorescence polarization; inhibition, % at 9.51 µM; hit rate 0.33% among 300,000;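 active = inhibition above the screen mean inhibition plus 3 SD, computed separately per campaign, cut at about 18% in these data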;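 also: inhibitors lower polarization as less probe binds the enzyme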
Starred values were filed as active, the others as inactive; x = no result given.

SMILES | GSTO1 counter | pPAFAH FP inh | PME-1 inh | PAFAH2 FP inh | PAFAH1B3 inh | PAD4 inh | LYPLA1 counter | Fam108B counter
O=C(NNS(=O)(=O)c1ccc(Cl)cc1)NC1CCCCC1 | 0 | 2 | 2 | 4 | 8 | 0 | 4 | 2
O=C(NCCc1ccc(Cl)cc1)C1(c2ccccc2)CC1 | -4 | 8 | 0 | -3 | -2 | -1 | 0 | 0
COCCCn1c(C(=O)Nc2ccc3c(c2)OCO3)cc2c(=O)n3ccccc3nc21 | 5 | 6 | -1 | 1 | 1 | -3 | -3 | 0
Cc1ccc(S(=O)(=O)n2cc(-c3ccccc3)c(N)n2)cc1 | -7 | -5 | 3 | -7 | 7 | 3 | -1 | 4
Cc1ccc([C@@H]2CC=C(C(=O)O)[C@H](c3ccccc3)N2S(=O)(=O)c2ccccc2C)cc1 | x | 0 | x | 3 | 11 | -2 | x | x
Cc1cccc(NC(=O)CSCC(=O)N2CCN(c3cccc(C(F)(F)F)c3)CC2)c1 | x | 12 | 1 | 0 | 5 | 4 | 3 | x
O=C(CSc1ccc(Cl)cc1)NNC(=O)c1ccco1 | 1 | 1 | 4 | 6 | -8 | -2 | 2 | -1
CC(=O)N1CCOc2ccc(S(=O)(=O)NCc3ccc(Cl)cc3)cc21 | 5 | 5 | 4 | 6 | 4 | -4 | -1 | 2
OCCOCCn1c(CCNc2nc(-c3ccc(F)cc3)cs2)nc2cc(C(F)(F)F)ccc21 | 0 | 6 | 4 | 4 | 13 | 5 | -2 | 0
CCOc1ccccc1CNC(=O)Cn1ccc2cc(S(=O)(=O)N3CCC(C)CC3)ccc21 | -3 | 4 | 6 | -6 | 4 | -3 | -3 | -6
Cc1ccc(SCCC(=O)Nc2cc(C)on2)cc1 | -1 | 5 | -2 | -3 | -5 | -3 | 2 | -2
COc1ccc(OC)c(S(=O)(=O)NCCc2ccccc2)c1 | -6 | 0 | 4 | -1 | -1 | 1 | -1 | -6

A section of the results above:
SMILES | GSTO1 counter | pPAFAH FP inh | PME-1 inh | PAFAH2 FP inh | PAFAH1B3 inh | PAD4 inh | LYPLA1 counter | Fam108B counter
O=C(NNS(=O)(=O)c1ccc(Cl)cc1)NC1CCCCC1 | 0 | 2 | 2 | 4 | 8 | 0 | 4 | 2
O=C(NCCc1ccc(Cl)cc1)C1(c2ccccc2)CC1 | -4 | 8 | 0 | -3 | -2 | -1 | 0 | 0
COCCCn1c(C(=O)Nc2ccc3c(c2)OCO3)cc2c(=O)n3ccccc3nc21 | 5 | 6 | -1 | 1 | 1 | -3 | -3 | 0
Cc1ccc(S(=O)(=O)n2cc(-c3ccccc3)c(N)n2)cc1 | -7 | -5 | 3 | -7 | 7 | 3 | -1 | 4
Cc1ccc([C@@H]2CC=C(C(=O)O)[C@H](c3ccccc3)N2S(=O)(=O)c2ccccc2C)cc1 | x | 0 | x | 3 | 11 | -2 | x | x
Cc1cccc(NC(=O)CSCC(=O)N2CCN(c3cccc(C(F)(F)F)c3)CC2)c1 | x | 12 | 1 | 0 | 5 | 4 | 3 | x
O=C(CSc1ccc(Cl)cc1)NNC(=O)c1ccco1 | 1 | 1 | 4 | 6 | -8 | -2 | 2 | -1
CC(=O)N1CCOc2ccc(S(=O)(=O)NCc3ccc(Cl)cc3)cc21 | 5 | 5 | 4 | 6 | 4 | -4 | -1 | 2
OCCOCCn1c(CCNc2nc(-c3ccc(F)cc3)cs2)nc2cc(C(F)(F)F)ccc21 | 0 | 6 | 4 | 4 | 13 | 5 | -2 | 0
CCOc1ccccc1CNC(=O)Cn1ccc2cc(S(=O)(=O)N3CCC(C)CC3)ccc21 | -3 | 4 | 6 | -6 | 4 | -3 | -3 | -6
Cc1ccc(SCCC(=O)Nc2cc(C)on2)cc1 | -1 | 5 | -2 | -3 | -5 | -3 | 2 | -2
COc1ccc(OC)c(S(=O)(=O)NCCc2ccccc2)c1 | -6 | 0 | 4 | -1 | -1 | 1 | -1 | -6

Later entries.
SMILES | GSTO1 counter | pPAFAH FP inh | PME-1 inh | PAFAH2 FP inh | PAFAH1B3 inh | PAD4 inh | LYPLA1 counter | Fam108B counter
COc1ccccc1CNC(=O)COC(=O)CSc1ccc(Cl)cc1 | 1 | 21 | 2 | -1 | 4 | -1 | 1 | -1
N#Cc1c(NC(=O)CSc2ncn[nH]2)sc2c1CCCCC2 | 7 | -5 | 5 | -1 | 1 | -10 | -2 | -2
O=C(O)c1ccc(NC(=O)C2(c3ccccc3)CCCC2)cc1 | 7 | 3 | -2 | 8 | 12 | -3 | 5 | 3
CCOC(=O)c1c(C)[nH]c(C)c1C(=O)COC(=O)CSc1ccc(C)cc1 | x | 15 | x | 9 | 8 | 0 | x | x
CC1CCN(S(=O)(=O)c2ccc3c(c2)c(=O)c(C(=O)N2CCOCC2)cn3C)CC1 | -2 | 1 | -4 | 17 | -4 | 2 | -2 | 1
Cc1noc(C)c1COC(=O)C1(c2cccc(F)c2)CCCC1 | -4 | 5 | -4 | 1 | -5 | -2 | 1 | -8
O=S(=O)(Nc1ccc(Cc2ccncc2)cc1)c1ccc(Br)cc1 | 13 | 16 | -2 | -1 | -2 | -2 | 7 | 1
O=C(COC(=O)CCSc1ccc(Cl)cc1)NCc1ccccc1 | 4 | 14 | 6 | 4 | 9 | 0 | -3 | 5
CC(C)(C)c1ccc(/C=N/OCC(=O)NCc2ccc(F)cc2)cc1 | 0 | 10 | 5 | 9 | 7 | -7 | -5 | 5
Cc1ccc(C)c(OCC(=O)NC(Cc2c[nH]c3ccccc23)C(=O)O)c1 (stereo not drawn) | -6 | 2 | -2 | -1 | 2 | -8 | 1 | 0
NC(=O)C(c1ccc(Cl)cc1)c1ccc(Sc2ccccc2)nn1 (stereo not drawn) | -7 | 0 | 3 | -3 | 6 | -2 | -1 | 8
Cc1c(NC(=O)C23CC4CC(CC(Br)(C4)C2)C3)c(=O)n(-c2ccccc2)n1C | 1 | 2 | -1 | -2 | 4 | -4 | -4 | 1
O=C(O)c1cc(S(=O)(=O)N2CCN(S(=O)(=O)c3ccc4ccccc4c3)CC2)ccc1Br | x | 15 | x | 6 | 6 | 2 | x | x
O=C(COC(=O)c1ccco1)NCc1ccco1 | -2 | 6 | -10 | 21 | 7 | 0 | -5 | -3
COc1ccc(CC(CC(=O)O)C(=O)Nc2ccc(Cl)c(Cl)c2)cc1 (stereo not drawn) | 6 | 7 | 5 | 4 | 4 | -3 | -2 | -3
N#Cc1c(-c2ccc(F)cc2)c(-c2ccc(F)cc2)nn(CCO)c1=O | x | x | x | 9 | 5 | x | x | x
Cc1ccc(SCCC(=O)N2CCC(C)CC2)cc1 | 0 | -2 | 6 | -3 | 7 | -7 | 2 | -5
NC(=S)NN=C1CCCCC12CCCC2 | x | x | x | 10 | 2 | x | x | x
O=S(=O)(/N=C(/NC(=S)Nc1ccccc1)c1ccccc1)c1ccc(Cl)cc1 | -1 | 2 | -5 | 5 | -6 | -1 | -1 | 4

Pulled by structure from the entries so far:
SMILES | GSTO1 counter | pPAFAH FP inh | PME-1 inh | PAFAH2 FP inh | PAFAH1B3 inh | PAD4 inh | LYPLA1 counter | Fam108B counter
O=C(O)c1cc(S(=O)(=O)N2CCN(S(=O)(=O)c3ccc4ccccc4c3)CC2)ccc1Br | x | 15 | x | 6 | 6 | 2 | x | x
COc1ccc(CC(CC(=O)O)C(=O)Nc2ccc(Cl)c(Cl)c2)cc1 (stereo not drawn) | 6 | 7 | 5 | 4 | 4 | -3 | -2 | -3

Some of the compounds tested; the hit share may differ from the screen's.
